gsp agonist – agonists of gsp mutant (McCune-Albright syndrome); gsp mutant cells, cAMP HTRF, 30 min; control for the full effect not named in the record; Potency, µM (highest dose often 76.9 µM), without a hit: top-dose activation (cAMP increase), actives largely listed as activators; actives 0.13% (n = 340,000); AID 624287; active = well fitted activation curve with a large enough effect; inconclusive = small, poorly fitted or top-dose-only effect, or another doubt; inactive = no such curve, though single readings can be large or run the other way; cell line not stated here;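 further: phosphodiesterase inhibitor Ro 20-1724 added with compounds to block cAMP breakdown; potency means the concentration at half of the fitted maximal effect; nearly all actives have a fitted effect of over 60% in size; about a fifth of the inactives were tested at one dose only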
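Cells stably selected in G418 were plated at 2000/well, grown 16-24 hr, then given compounds in DMSO with the PDE inhibitor […] (300 uM solution added) for 30 min at 37C; cAMP was read by HTRF.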
TRPV1 potentiator – enhances activation of the human vanilloid receptor TRPV1. Q8NER1. TRPV1-expressing cells, Fluo-8 calcium influx, capsaicin EC20 potentiation; host cell line not named in the record; control for the full effect not named in the record. potentiation, % at 8.33 µM. actives 0.02% (n = 320,000). AID 540277; active means potentiation above 80%; inconclusive means 30% to 80%; inactive means below 30%; further: 0% is about no effect
Target sequence (Q8NER1 whole entry, looked up): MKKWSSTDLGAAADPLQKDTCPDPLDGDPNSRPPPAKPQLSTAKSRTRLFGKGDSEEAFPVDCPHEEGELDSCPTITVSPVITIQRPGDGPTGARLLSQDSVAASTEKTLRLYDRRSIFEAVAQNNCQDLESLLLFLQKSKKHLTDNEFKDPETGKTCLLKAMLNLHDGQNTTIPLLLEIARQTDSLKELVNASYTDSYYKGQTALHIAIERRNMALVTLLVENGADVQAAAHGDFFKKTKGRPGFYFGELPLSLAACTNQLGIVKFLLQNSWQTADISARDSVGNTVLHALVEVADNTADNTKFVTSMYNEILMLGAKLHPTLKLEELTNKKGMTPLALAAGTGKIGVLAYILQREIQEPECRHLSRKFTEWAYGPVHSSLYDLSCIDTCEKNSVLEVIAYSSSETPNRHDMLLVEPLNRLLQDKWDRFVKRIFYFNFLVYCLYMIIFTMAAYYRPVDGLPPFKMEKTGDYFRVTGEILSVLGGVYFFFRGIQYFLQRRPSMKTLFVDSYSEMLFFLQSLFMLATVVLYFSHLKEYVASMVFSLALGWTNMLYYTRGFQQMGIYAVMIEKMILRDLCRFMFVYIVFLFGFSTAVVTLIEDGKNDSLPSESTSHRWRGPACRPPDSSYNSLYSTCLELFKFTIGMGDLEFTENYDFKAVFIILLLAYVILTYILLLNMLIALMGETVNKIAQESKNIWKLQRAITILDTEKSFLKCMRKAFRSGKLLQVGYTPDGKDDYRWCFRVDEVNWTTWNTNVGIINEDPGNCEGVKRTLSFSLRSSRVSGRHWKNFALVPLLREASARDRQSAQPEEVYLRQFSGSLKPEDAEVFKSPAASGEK
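Fluo-8 calcium influx in TRPV1-expressing cells, kinetic read (ex 480/em 520 nm). Compound added and read 3 min for agonist activity, followed by capsaicin at EC20 final and 2 min further read for enhancement.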
Sfp PPTase inh – blocks B. subtilis Sfp PPTase activity. actives 3.5% (n = 310,000). Potency, µM, without a hit: max response, negative = inhibition, actives largely listed as inhibitors. Biochemical Sfp PPTase activity, qHTS; active means well fitted inhibition curve with a large enough effect; inconclusive means small, poorly fitted or top-dose-only effect, or another doubt; inactive means no such curve, though single readings can be large or run the other way;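 further: the enzyme is Sfp with the accession as filed and its product quenches rhodamine fluorescence; potency means the concentration at half of the fitted maximal effect; 0% = enzyme reaction without inhibitor and -100% = no enzyme wells; top concentration of the series not given in the record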
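Fluorescence-quenching assay: 15 nM Sfp-PPTase preincubated 15 min at room temperature with compound, then 5 uM rhodamine-CoA and 12.5 uM BHQ-2-labelled YbbR peptide added. Fluorescence (ex 525/em 598 nm) read at start and after 30 min; difference gives rate.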
Menin-MLL FL inh – menin-MLL binding inhibition, fluorescein peptide | Fluorescence polarization, fluorescein-MLL peptide displacement from menin | FP activity change, % at 61.4 µM | 290,000 tested, under 10 active | AID 1766; inconclusive = falling polarisation curve, or a change in total fluorescence; inactive = total fluorescence flat and polarisation flat or rising; no compound was filed as active; the % refers to the polarisation; negative = inhibition;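 further: % of control where 0% means no effect; inhibitors lower the polarisation; unlabelled MLL peptide was the positive control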
TRPML1 blocker – inhibitors of human TRPML1 channel | TRPML1-inducible cells, Ca2+ dye fluorescence, FDSS; active compounds read low; inhibition of EC80 agonist-evoked calcium signal | activity change, negative = inhibition, % (no concentration beside the values) | actives 0.02% (n = 390,000); in the data active means activity change below about -50%; inconclusive means about -30% to -50%; inactive means above about -30%;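 further: stimulus is agonist 54-4 at its EC80 concentration; on the % scale 0 is the no-effect control and ±100 the full control effect; compound concentration not given in the record; the text of the record puts the active cut at -80%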
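Tet-induced TRPML1-DL cells loaded with Ca8 no-wash calcium dye were read kinetically on FDSS. Compound addition was followed by EC80 agonist 54-4 (4 uM final); inhibition was read over 110 s.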
ClpP mod – qHTS Assay for Activators of ClpP | ATP-dependent Clp protease proteolytic subunit (Bacillus subtilis (strain 168)), P80244 | actives 1.9% (n = 340,000) | purified B. subtilis ClpP, FRET peptide cleavage, 20 min | Potency, µM (highest dose often 57.5 µM), for the others: at the highest dose activity change, negative = active; active = well fitted falling curve with a large enough effect; inconclusive = small, poorly fitted or top-dose-only effect; inactive = no such curve, though single readings can be large or run the other way; further: potency means the concentration at half of the fitted maximal effect; the source files actives as falling curves though it sought activators and does not explain the sign; nearly all actives have a fitted effect of over 65% in size; many hits overshoot -100%
Target sequence (P80244 whole entry, looked up): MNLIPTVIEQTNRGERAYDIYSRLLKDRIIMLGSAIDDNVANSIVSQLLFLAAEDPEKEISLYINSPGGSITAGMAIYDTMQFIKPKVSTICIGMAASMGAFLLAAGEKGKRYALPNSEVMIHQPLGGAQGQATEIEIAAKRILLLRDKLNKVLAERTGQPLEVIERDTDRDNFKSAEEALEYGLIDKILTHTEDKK
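Buffer: 100 mM Tris/HCl pH8, 100 mM KCl, 0.05% low protease BSA, 2.5% glycerol, 0.01% Tween-20. ClpP 10 microg/mL final; 20 min RT; delta FRET normalized to ADEP and DMSO controls.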
gsp antag – gsp mutant antagonism | gsp-mutant cells, cAMP HTRF, 30 min; control for the full effect not named in the record | Potency, µM (highest dose often 76.9 µM), for inactives: at the highest dose activity change, negative = inhibition, hits mostly inhibitors | actives 0.4% (n = 340,000) | AID 624288; active = falling curve of any shape with a large fitted effect; inconclusive = falling curve, mostly with a smaller effect; inactive = flat or rising curve; cell line not stated here;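 further: intracellular cAMP measured with PDE inhibitor Ro 20-1724 present during compound exposure; potency means the concentration at half of the fitted maximal effect; on the % scale 0 is the no-effect control and ±100 the full control effect; nearly all actives have a fitted effect of over 65% in size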
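Cells, 2000/well, grown 16–24 h in DMEM 10% FBS with 0.5 mg/ml G418, then compounds plus […] (300 uM addition stock), 30 min at 37C. cAMP read by HTRF (cAMP-d2 and anti-cAMP antibody-K in lysis buffer) after 30 min RT.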
Numbers without * were called inactive; u = inconclusive; x = not tested or not shown; & = joins results of further samples; [ ] = remark or other dose.

Compound,gsp agonist,TRPV1 potentiator,Sfp PPTase inh,Menin-MLL FL inh,TRPML1 blocker,ClpP mod,gsp antag
Nc1nnnn1CC(=O)N/N=C/c1cc([N+](=O)[O-])ccc1Cl,10%[15.4 µM],-6,3%,-3.6,0,x,-2%
CC(=O)N[C@@H](C)C(=O)N1CCN(S(=O)(=O)c2ccc(Cl)cc2)CC1,-5%[15.4 µM],-1,10%,-0.3,5,-0.4%,-12%
COc1ccc(N2c3ccccc3CN(Cc3ccccc3)[C@@H](C)[C@H]2Cc2cccnc2)cc1,-80%[inhibitor],x,x,x,9,u,x
CC(C)(C)C1CCC(N2CCN(c3ccccc3)CC2)CC1 (stereo not drawn),u,u,0%,-3.7,-3,0.0%,7%
COC(=O)c1sccc1NC(=O)c1ccc(OC)c([N+](=O)[O-])c1,-10%[15.4 µM],-18,12%,0.7,-23,-0.8%,1%
CCc1sc(NC(=O)CN2CCOCC2)nc1-c1ccccc1,30%,-9,15%,0.7,21,0.1%,-2%
Cc1nn(-c2ccccc2)c(Cl)c1C(=O)N(C)c1nc(-c2ccc(F)cc2)cs1,x,-3,-10%,1.3,x,x,x
CC(C)(C)c1cc(NC(=O)Nc2ccc(Br)cc2Cl)no1,13%,-12,0%,2.3,-20,x,-14%
Cc1ccccc1NC(=O)Cc1nc(COC(=O)COc2ccccc2C(C)C)cs1,-1%,0,x,x,3,-0.6%,-8%
Cc1ccc(C(=O)Nc2ncccc2S(=O)(=O)c2ccccc2)cc1,17%,5,18%,-6.4,18,-1.3%,8%
O=C(NC1CC2CCCC(C1)N2C(=S)NCCc1ccccc1)C1CC1 (stereo not drawn),10%,-11,5%,1.7,12,-0.4%,-5%
O=C(NCCNC(=O)c1ccc([N+](=O)[O-])cc1)c1ccncc1,0%[15.4 µM],u,18%,-5.0,-6,x,1%
COc1cccc(-c2n[nH]c(=S)n2Cc2ccco2)c1,u,-6,32µM*,6.2,-21,-16%,3%
CC1=CC(=C(C#N)C#N)C=C(C)N1Cc1ccccc1,0%[15.4 µM],-15,0%,-2.0,-3,x,1%
CCn1c(=O)c(C(=O)Nc2ccccc2)c(O)c2ccccc21,4%,1,3%,2.2,7,-0.8%,2%
CC(=O)C1CCC2C3CC=C4N(C)C(=O)CCC4(C)C3CCC12C (stereo not drawn),-8%,x,x,x,-7,x,-2%
O=C(O)CC/C(=N\NC(=O)c1ccc(F)cc1)c1ccc(Br)cc1,-5%[15.4 µM],-9,-4%,7.4,2,x,-6%
NC(=O)C1CCN(C(=O)c2cc(S(=O)(=O)N3CCOCC3)c(Cl)cc2Cl)CC1,27%,12,10%,5.9,10,-0.4%,-4%
COc1ccc(S(=O)(=O)N2CCOC23CCN(S(=O)(=O)c2ccccc2)CC3)cc1,-9%[15.4 µM],2,x,x,17,0.4%,-9%
CCn1c(SCC(=O)Nc2ccc(N3CCOCC3)c(Cl)c2)nnc1-c1ccc(N)cc1,25%,-2,4%,6.0,-9,-5.7%,-16%
COc1ccc(OC)c(N/C=C/C(=O)c2ccc(OC)c(OC)c2)c1,-3%[15.4 µM],-9,u,3.3,-18,0.6%,3%
Cc1ccc(CC2CC(=O)N(CC(=O)O)C2=O)cc1 (stereo not drawn),-49%[inhibitor],5,24%,6.9,1,0.2%,6%
CCCC(=O)c1ccc(N2CCOCC2)c(F)c1,42%,-1,23%,6.3,-16,-3.4%,6%
CC(O)(CS(=O)(=O)Cc1ccc(Cl)cc1)C(=O)Nc1cccc(C(F)(F)F)c1 (stereo not drawn),18%,x,29%,2.3,-10,1.7%,2%
Nc1c(S(=O)(=O)c2ccccc2)nnn1-c1ccccc1,-18%,0,21%,-1.5,-11,-0.8%,8%
Cn1c(SCC(=O)N2CCOCC2)nc2c(c1=O)SCC2,5%,-19,9%,x,7,-1.5%,1%
Cc1cc(N2CCOCC2)nc(SCc2c(Cl)cccc2Cl)n1,0%,-5,-1%,-2.7,-5,0.7%,-34%
Nn1c(SCC(=O)NCc2ccc3c(c2)OCO3)nnc1C1CC1,-69%[inhibitor],-6,3%,3.2,4,0.8%,-9%
Cc1ccc(S(=O)(=O)N2CCC(=O)N(C(COC(=O)Nc3ccccc3)Cc3ccccc3)CC2)cc1 (stereo not drawn),-20%,-13,8%&12%,4.7&2.3,12,0.0%,-10%
CCOC(=O)c1c(C)[nH]c(C)c1C=O,0%[15.4 µM],4,21%,-0.9,16,-33%,6%
Cc1cn(C(C)C)c(=O)n(-c2ccccc2)c1=O,-6%,x,x,x,0,x,6%
c1ccc2c(OCCCCN3CCCC3)cccc2c1,9%,-7,-11%,-1.8,-6,-23%,8%
CCOC(=O)c1cccc(NC(=O)CCc2ccccc2)c1,u,7,9%,-0.3,-3,-2.2%,-2%
Clc1ccc(CSc2nncn2-c2ccc3c(c2)OCCO3)cc1,12%[15.4 µM],2,7%,-2.2,11,x,26%
CCN(Cc1ccccc1)C(=O)CSc1ncn[nH]1,19%[15.4 µM],12,-10%,-0.1,-27,x,5%
O=[N+]([O-])c1cccc(-c2nnc3ccc4ccccc4n23)c1,u,-3,-18%,2.9,-17,2.0%,9%
CC1(C)NC(=O)N(CC(=O)N2CCCC(C(F)(F)F)C2)C1=O (stereo not drawn),u,-2,x,x,1,-0.1%,17%
CN(c1ccc(C(=O)Nc2ccc3c(c2)OCCO3)cc1)S(C)(=O)=O,-71%[inhibitor],-11,-1%,-5.7,-5,-0.8%,-1%
C[C@H](CO)N1C[C@H](C)[C@@H](CN(C)Cc2ccc(Cl)c(Cl)c2)OCc2cnnn2CCCC1=O,-40%[inhibitor],x,x,x,-6,-1.2%,x
O=C(NNS(=O)(=O)c1ccccc1Cl)c1nn(-c2ccc(F)cc2)ccc1=O,10%[15.4 µM],-9,-3%,4.2,-4,-1.6%,-14%

Four of these compounds in a different format.
COC(=O)c1sccc1NC(=O)c1ccc(OC)c([N+](=O)[O-])c1
  gsp agonist: -10%[15.4 µM] | TRPV1 potentiator: -18 | Sfp PPTase inh: 12% | Menin-MLL FL inh: 0.7 | TRPML1 blocker: -23 | ClpP mod: -0.8% | gsp antag: 1%
CCc1sc(NC(=O)CN2CCOCC2)nc1-c1ccccc1
  gsp agonist: 30% | TRPV1 potentiator: -9 | Sfp PPTase inh: 15% | Menin-MLL FL inh: 0.7 | TRPML1 blocker: 21 | ClpP mod: 0.1% | gsp antag: -2%
Cc1nn(-c2ccccc2)c(Cl)c1C(=O)N(C)c1nc(-c2ccc(F)cc2)cs1
  gsp agonist: x | TRPV1 potentiator: -3 | Sfp PPTase inh: -10% | Menin-MLL FL inh: 1.3 | TRPML1 blocker: x | ClpP mod: x | gsp antag: x
CC(C)(C)c1cc(NC(=O)Nc2ccc(Br)cc2Cl)no1
  gsp agonist: 13% | TRPV1 potentiator: -12 | Sfp PPTase inh: 0% | Menin-MLL FL inh: 2.3 | TRPML1 blocker: -20 | ClpP mod: x | gsp antag: -14%

(cont.)
Compound,gsp agonist,TRPV1 potentiator,Sfp PPTase inh,Menin-MLL FL inh,TRPML1 blocker,ClpP mod,gsp antag
Cc1ccc(N(C(C)C(=O)N2CCC(C)CC2)S(C)(=O)=O)cc1C (stereo not drawn),-4%,-4,18%,1.0,-10,-5.4%,0%
CCNC(=O)CCSc1nnc(-c2ccco2)o1,-3%[15.4 µM],-13,1%,3.5,4,-1.0%,-2%
CCn1cc([N+](=O)[O-])c(C(=O)Nc2nc(-c3ccc(C)cc3)c(C)s2)n1,-51%[inhibitor],0,20%,0.9,-7,11%,1%
CC(C)=NNC(=O)c1c(O)c2ccccc2[nH]c1=O,-5%,-19,-6%,0.5,1,0.9%,7%
Cc1c(C(=O)N2CCc3ccccc32)cnn1C,-6%[15.4 µM],-7,9%,0.9,-18,1.0%,2%
Cc1cc(SCC(=O)c2ccc(O)c(O)c2)nc2ccccc12,-9%[15.4 µM],-10,-9%,6.0,2,x,-24%
CCN(C(=O)CSc1cc(C)c2ccccc2n1)C1CCS(=O)(=O)C1 (stereo not drawn),11%[15.4 µM],-11,1%,4.6,1,x,-6%
Cc1cc(C)c(NC(=O)COC(=O)CSc2ccc(Br)cc2C)c(C)c1,-7%,12,-5%,3.7,2,-10%,2%
NC(=O)CCn1ccc2ccccc21,22%,-2,3%,-0.7,-6,x,2%
COCCn1c(SCC(=O)NC2CCCC2)nc2cccnc21,-2%,17,-16%,0.8,19,1.3%,7%
O=C(O)C1CCCCC1C(=O)NCCCc1ccccc1 (stereo not drawn),-6%,16,8%,-1.2,9,3.8%,0%
CCCc1ccc(-c2cc(C(=O)NC3=NCCS3)c3ccccc3n2)cc1,u,15,u,4.1,-4,-10%,-5%
CC(C)(C)C(=O)NC(=S)Nc1ccc(F)cc1,20%,-22,-6%,-4.5,2,-7.3%,-2%
CC(C)[C@H](NS(=O)(=O)c1ccccc1F)C(=O)OCC(=O)Nc1cccc(S(N)(=O)=O)c1,-17%,x,x,x,2,x,6%
Cc1cc(N2C(=O)C(O)=C(C(=O)c3cc4ccccc4o3)C2c2ccc(OC(C)C)cc2)no1 (stereo not drawn),u,23,9%,3.8,8,-1.6%,2%
CCN1C(=O)c2ccccc2S(=O)(=O)c2ccc(C(=O)NC(C)C)cc21,-24%,8,-4%,-0.4,10,1.3%,6%
O=C(C1CCN(S(=O)(=O)c2cccc3cccnc23)CC1)N1CCc2ccccc21,3%,-1,10%,4.7,7,-0.6%,-22%
CSc1ccccc1OCc1cc(C(=O)N(C)Cc2ccc(C)o2)no1,-39%[inhibitor],-30,20µM*,-1.6,7,2.5%,6%
C#CCOCCOCCOCCNc1nc(N2CCN(C(=O)CCCCCCCCCCNC(=O)[C@@H](CCSC)n3cc(CCO)nn3)CC2)nc(N2CCN(C(=O)CCCCCCCCCCNC(=O)[C@H](CCSC)n3cc(CCO)nn3)CC2)n1,x,-18,x,x,11,0.9%,-6%
Cc1csc(NC(=O)c2cccc(C)c2C)n1,0%,-11,17%,0.4,18,-1.2%,-7%
